Vif TR-FRET – inhibitors of Vif binding to APOBEC3G peptide, primary screen, biochemical, TR-FRET, GST-Vif 1-94, biotin-A3G peptide, dose response retest (AID 1117319); one-dose inhibition, %; IC50 in µM for titrated hits; TR-FRET GST-Vif / biotin-A3G peptide binding; higher % means a stronger effect; test concentration not given here; strong numbers were not always called active; 260,000 compounds, 0.57% hits;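 active means above the screen mean plus three standard deviations and confirmed in dose response; inconclusive means results disagree or hit not tested in dose response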;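 further: Vif residues 1-94 fused to GST binding biotinylated APOBEC3G peptide 110-148; 0% = full assay without inhibitor and 100% = GST in place of GST-Vif; retest series ran down from 100 µM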
MLL AF4-AF9 inh – MLL-AF4/AF9 protein interaction inhibition. AlphaScreen, biotin-AF4 peptide binding to FLAG-AF9. inhibition, % at 10 µM. 350,000 compounds, 0.47% hits;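 active means every replicate reaching a set inhibition limit, whatever the replicate mean, cut at about 25% in these data; inconclusive means mean inhibition reaches that limit but some replicates miss it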;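 further: 0% = plate neutral control median and 100% = total signal loss; the record names both 10 and 1 µM as test concentration; the first replicate is given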
FGF22 binding – shifts melting point of recombinant human FGF22; Q9HCT0; recombinant FGF22 thermal shift, SYPRO orange fluorescence; percent of sucrose octasulfate shift, DMSO zero; calls only at 9.99 µM; 340,000 compounds, 1.5% hits;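 active means melting point raised past a set limit in the mean and every replicate; inconclusive means no clear call; three in four hits are not shown here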
Target sequence (Q9HCT0 whole entry, looked up): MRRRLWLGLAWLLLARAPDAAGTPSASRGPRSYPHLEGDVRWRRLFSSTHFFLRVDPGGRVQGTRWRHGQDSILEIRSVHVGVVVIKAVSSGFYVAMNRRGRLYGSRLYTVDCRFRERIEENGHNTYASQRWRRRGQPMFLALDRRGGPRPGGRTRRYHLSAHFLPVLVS
E coli growth – E. coli growth inhibition; Escherichia coli growth, OD600, 23 h; stronger effect = lower value; OD600 absorbance (concentration not given with the values); 330,000 compounds, 0.21% hits; AID 1053175;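 active means OD600 absorbance below the run mean of sample wells minus 3.6 SD, in any replicate, cut at about 0.56 in these data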;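 further: stock transfer was 300 nL into about 60 µL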
ALR inh – inhibitors of human sulfhydryl oxidase ALR | P55789 | purified ALR, DTT oxidation, H2O2 HRP-luminol luminescence | inhibition, % (no concentration beside the values) | 290,000 compounds, 3.8% hits;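 active means mean and each replicate at 75% or more; inconclusive means only one of the two met; inactive means neither met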;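 further: stock transfer was 7.5 nL into about 7.5 µL; 0% = neutral wells and 100% = wells with inactivated enzyme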
Target sequence (P55789 whole entry, looked up): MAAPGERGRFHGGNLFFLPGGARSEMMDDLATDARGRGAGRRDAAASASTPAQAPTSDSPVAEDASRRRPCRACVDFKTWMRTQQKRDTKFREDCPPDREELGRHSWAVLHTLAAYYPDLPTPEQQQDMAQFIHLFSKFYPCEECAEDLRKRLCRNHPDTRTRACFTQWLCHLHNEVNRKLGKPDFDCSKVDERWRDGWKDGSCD
HNF4A DNA FP – change in binding of human HNF4 alpha to DNA | 360,000 compounds, 0.3% hits | P41235 | AID 1224865 | activity change, % at 10 µM | HNF4a-FITC DNA binding, fluorescence polarization, 1 h; in the data active means activity change above about 30%, passing the limit was not always enough;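 further: controls were the assay level and a saturating level of protein; the project sought stronger binding though the title names inhibitors; some compounds called inactive have numbers as strong as hits; positive values seem to mean higher polarization but the record does not say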
Target sequence (P41235 whole entry, looked up): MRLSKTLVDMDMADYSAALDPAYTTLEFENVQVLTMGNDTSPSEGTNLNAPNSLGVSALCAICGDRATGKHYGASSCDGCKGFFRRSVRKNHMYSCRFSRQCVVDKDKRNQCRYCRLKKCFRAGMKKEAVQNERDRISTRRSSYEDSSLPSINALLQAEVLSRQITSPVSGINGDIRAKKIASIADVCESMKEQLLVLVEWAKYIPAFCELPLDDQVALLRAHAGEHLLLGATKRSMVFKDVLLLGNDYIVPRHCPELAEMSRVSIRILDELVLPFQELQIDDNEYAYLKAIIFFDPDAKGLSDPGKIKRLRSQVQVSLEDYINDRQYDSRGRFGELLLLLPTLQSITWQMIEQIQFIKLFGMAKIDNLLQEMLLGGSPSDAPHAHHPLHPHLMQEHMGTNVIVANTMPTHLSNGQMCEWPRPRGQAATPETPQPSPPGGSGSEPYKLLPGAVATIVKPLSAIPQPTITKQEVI
rRNA inh HTS – inhibitors of bacterial rRNA selective over humanized ribosomes; 350,000 compounds, 1.6% hits; E. coli WT GFP vs humanized-ribosome RFP mutants, fluorescence, 24 h; stronger effect = lower value; DMSO median 0, no signal -100; GFP signal change (wild-type ribosome), % (concentration not given with the values);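 active means significant combined selectivity score with lowered wild-type GFP, culture density cut under 30%, mutant RFP and density less affected; inactive means any of these conditions unmet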; further: one replicate is shown; some compounds called inactive have numbers as strong as hits
rRNA inh HTS OD600 – recorded beside rRNA inh HTS, whose call it bears; OD600 change, %; measured here: OD600 growth;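 optical density of the mix in the first replicate; 0 = DMSO median and -100 = no signal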
rRNA inh HTS RFP – further read-out of rRNA inh HTS, marked with its call; RFP signal change, %; measured here: RFP humanized mutant strains;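 first replicate; 0 = DMSO median and -100 = no signal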
* hit, by the source's call; i = inactive; u = inconclusive; x = not tested or not shown; & = joins results of further samples. Some of the compounds tested; the hit share may differ from the screen's.

entry	SMILES	FGF22 binding	Vif TR-FRET	HNF4A DNA FP	E coli growth	rRNA inh HTS
1	CCOC(=O)c1cnn(-c2nc(-c3cccc(F)c3)cs2)c1C(F)(F)F	x	-10.8%	1.3	0.671	x
2	Cc1cccc(CC(=O)Nc2cc(C)c3c(=O)oc4ccccc4c3n2)c1	i	-37.3%	1.2	0.73	2.7
3	COc1ccc(Cl)cc1CC=NNC(=O)c1ccncc1	i	-9.7%	-0.8	x	2.1
4	CCCNC(=O)Nc1ccc2c(c1)C(=O)N(C)[C@H]1CC[C@H](CC(=O)NC3CCC3)O[C@@H]1CO2	i	x	x	x	4.8
5	CN1CCN(CC(=O)N2CCn3c4c(c5cc(C6CCCCC6)ccc53)CCCC42)CC1 (centres undefined)	x	4.3%	7.8	x	x
6	C=CCNC(=S)Nc1nc2c(cc1C(=O)OCC)COC(C)(C)C2	i	-8.3%	-0.2	0.699	14.5
7	O=C1CN(C(=O)CSc2nc3c(cnn3-c3ccccc3)c(=O)[nH]2)c2ccccc2N1	i	x	0.7	0.669	6.3
8	COCCn1c(SCC(=O)NCCc2ccccc2)nnc1-c1ccco1	x	19.1%	1.4	0.662	x
9	NC(=O)/C(=C\c1ccco1)NC(=O)c1ccco1	i	13.1%	3.4	x	23.5
10	COc1ccc(CCNC(=O)Oc2ccccc2)cc1OC	i	-0.8%	2.1	0.648	1.7
11	O=C1CC(c2ccc(O)c(O)c2)Oc2c1ccc(O)c2O (centres undefined)	i	x	-22.3	0.733	-0.7
12	CCc1ccc(NC(=O)c2cccnc2)cc1	x	0.9%	8.2	0.655	x
13	CCN1C(=O)C(CC(=O)Nc2ccccc2)N(Cc2ccccn2)C1=S (centres undefined)	i	9.8%	-2.1	0.657	-0.8
14	CN1CCN(C(=O)C[C@@H]2C[C@@H]3c4cc(NC(=O)c5ccc6c(c5)OCO6)ccc4O[C@@H]3[C@@H](CO)O2)CC1	i	x	x	x	1.3
15	CCOC(=O)C1CCN(C(=O)CN(c2ccc(OC)cc2)S(=O)(=O)c2c(C)nn(C)c2C)CC1	i	u	4.8	x	x

entry	rRNA inh HTS RFP	rRNA inh HTS OD600	ALR inh	MLL AF4-AF9 inh
1	x	x	-10.1	x
2	-1.0	9.2	1.8	-6.7
3	-0.8	0.4	x	-46.9
4	2.3	11.6	x	-0.6
5	x	x	-6.0	x
6	-3.2	4.9	-1.2	-14.9
7	2.6	-3.6	10.9	-2.1
8	x	x	4.2	x
9	7.0	17.9	x	-9.3
10	1.3	1.5	-5.0	-9.3
11	-13.4	-13.0	98.5*	-12.8
12	x	x	-51.4	x
13	-5.0	-2.6	x	-7.3
14	0.6	4.0	x	-8.1
15	x	x	x	-5.1

Record cards, from the list above:
COc1ccc(Cl)cc1CC=NNC(=O)c1ccncc1 is listed as FGF22 binding = i; Vif TR-FRET = -9.7%; HNF4A DNA FP = -0.8; E coli growth = x; rRNA inh HTS = 2.1; rRNA inh HTS RFP = -0.8; rRNA inh HTS OD600 = 0.4; ALR inh = x; MLL AF4-AF9 inh = -46.9
CCCNC(=O)Nc1ccc2c(c1)C(=O)N(C)[C@H]1CC[C@H](CC(=O)NC3CCC3)O[C@@H]1CO2 is listed as FGF22 binding = i; Vif TR-FRET = x; HNF4A DNA FP = x; E coli growth = x; rRNA inh HTS = 4.8; rRNA inh HTS RFP = 2.3; rRNA inh HTS OD600 = 11.6; ALR inh = x; MLL AF4-AF9 inh = -0.6

Reformatted screen by screen: 2 of the compounds above
11: O=C1CC(c2ccc(O)c(O)c2)Oc2c1ccc(O)c2O (centres undefined)
12: CCc1ccc(NC(=O)c2cccnc2)cc1
Assay by compound	11	12
FGF22 binding	i	x
Vif TR-FRET	x	0.9%
HNF4A DNA FP	-22.3	8.2
E coli growth	0.733	0.655
rRNA inh HTS	-0.7	x
rRNA inh HTS RFP	-13.4	x
rRNA inh HTS OD600	-13.0	x
ALR inh	98.5*	-51.4
MLL AF4-AF9 inh	-12.8	x

Further structures
entry	SMILES	FGF22 binding	Vif TR-FRET	HNF4A DNA FP	E coli growth	rRNA inh HTS
16	COc1ccc(CNS(=O)(=O)c2ccccc2Br)c(OC)c1	i	x	x	x	6.7
17	Cc1noc(C)c1CN(C(=S)NC1CC2CCC1C2)c1ccccc1 (centres undefined)	i	-11.3%	-0.9	0.694	-51.5
18	Cc1nc(SC2CC(=O)N(c3ccc([N+](=O)[O-])cc3)C2=O)nc2c1CCCC2 (centres undefined)	x	4.3%	2.1	0.701	x
19	COc1ccc(S(=O)(=O)N(CC(=O)O)c2ccccn2)cc1	x	72.5%	-2.0	0.721	x
20	O=C(CCc1nc2ccccc2c(=O)[nH]1)NCC(=O)Nc1ccc(F)c(F)c1	i	-14.8%	2.0	0.63	-0.6
21	Cc1c(C)c2c(OCC(=O)NC3CC3)cc3c(c2oc1=O)CCC(C)(C)O3	i	x	2.9	0.704	-0.8
22	O=C(c1ccccc1Cl)N1CCSCC1	i	0.2%	2.5	0.669	9.8
23	COc1ccccc1CN1C(=O)[C@@H]2C(CC(N)=O)NC3(C(=O)Nc4c3ccc(Cl)c4C)[C@@H]2C1=O (some centres undefined)	x	-5.4%&2.5%	3.7	0.724	x
24	Clc1nc2ccccc2cc1/C=N/Nc1nc2ccccc2[nH]1	i	x	-1.9	x	-1.5
25	CCOc1ccccc1-c1nc(C(N)=O)c2[nH]c(=O)n(-c3cccc(C)c3)c2n1	x	-6.0%	-0.2	0.732	x
26	O=C(Nc1ccc(NC(=O)c2ccncc2)cc1)c1ccncc1	i	-5.7%	x	0.644	7.8
27	CCCNC(=O)Nc1ccc2c(c1)OC[C@H](C)N(S(C)(=O)=O)C[C@@H](C)[C@@H](OC)CN(C)C2=O	i	x	x	x	-0.3
28	C=CCN(C(=O)c1csnn1)C(C(=O)NC1CCCC1)c1ccccc1 (centres undefined)	i	4.9%	4.2	0.645	x
29	Cn1c(=O)c2c(nc(Oc3ccc4ccccc4c3)n2C)n(C)c1=O	x	-0.1%	-3.2	0.707	x
30	Cc1ccc(-c2noc(-c3ccccc3Br)n2)cc1	x	5.5%	1.5	0.74	x

entry	rRNA inh HTS RFP	rRNA inh HTS OD600	ALR inh	MLL AF4-AF9 inh
16	13.9	-2.0	x	-4.6
17	-22.0	-73.8	-0.1	-4.0
18	x	x	-10.3	x
19	x	x	-3.8	x
20	-0.6	-13.9	-6.6	-31.7
21	-7.6	-4.8	-16.2	-3.6
22	-0.2	9.7	2.8	-6.0
23	x	x	-7.8	x
24	0.1	12.4	29.2	-3.4
25	x	x	9.8	x
26	1.9	1.4	-4.7	-16.4
27	-0.5	7.1	x	-8.2
28	x	x	-2.8	-1.3
29	x	x	-13.4	x
30	x	x	0.5	x

Additional results:
entry	SMILES	FGF22 binding	Vif TR-FRET	HNF4A DNA FP	E coli growth	rRNA inh HTS
31	O=C(COC(=O)c1cccc(OC(F)F)c1)NC(=O)NC1CCCCC1	i	5.4%	7.4	0.689	-4.3
32	Cc1cccc(NC(=O)C[C@H]2CC[C@H]3[C@@H](COc4ccc(NC(=O)C5CCC5)cc4C(=O)N3C)O2)c1	i	x	x	x	-4.2
33	Cc1c(C(=O)O)sc2nc3n(c(=O)c12)CCC3	i	x	-15.1	0.691	10.9
34	CCOC(=O)c1ccc(-n2c(C)nc3ccccc3c2=O)cc1	x	-9.7%	-5.3	0.712	x
35	Cc1cc(C)cc(NC(=S)/C(=C(\[O-])c2ccc(Cl)s2)[n+]2cccc(C)c2)c1	i	5.7%	2.7	0.729	-9.8
36	COc1ccc(S(=O)(=O)N(C)C[C@H]2OCCCC[C@@H](C)Oc3ccc(NC(=O)NC4CCCCC4)cc3C(=O)N([C@@H](C)CO)C[C@@H]2C)cc1	i	x	x	x	-2.3
37	CC(C)NC(=O)Nc1ccc2c(c1)C(=O)N([C@@H](C)CO)C[C@H](C)[C@H](CN(C)Cc1ccccc1)OCCCC[C@H](C)O2	i	x	x	x	2.3
38	O=C1c2ccccc2C(=O)N1SC1CCCCC1	x	5.0%	-0.3	0.735	x
39	COc1ccc(S(=O)(=O)N2CCOC2CNC(=O)C(=O)NCCCN2CCOCC2)cc1OC (centres undefined)	i	1.6%	0.8	0.733	5.7
40	COC(=O)c1ccc2c(c1O)C(=O)c1ccccc1C2=O	x	5.6%	-0.3	0.686	x
41	CC(=O)c1cccc(S(=O)(=O)N2CCC(c3nc4ccccc4[nH]3)CC2)c1	i	x	5.0	0.699	2.1
42	COc1ccc(N=c2oc3cc(O)ccc3cc2C(=O)NCC2CCCO2)c(OC)c1 (centres undefined)	x	2.2%	-0.2	0.745	x
43	Cn1c(CSCc2ccc(F)cc2)nnc1SCC(=O)N1CCN(c2ccccc2)CC1	x	-3.6%	0.2	0.74	x
44	O=C(COC(=O)/C=C/c1ccc([N+](=O)[O-])cc1)NNC(=O)c1ccccc1	i	-0.4%	1.1	0.715	-1.6
45	CC(Nc1nc2ncn(Cc3ccccc3)c2c(=O)[nH]1)C(=O)O (centres undefined)	x	11.3%	-0.6	0.719	x

entry	rRNA inh HTS RFP	rRNA inh HTS OD600	ALR inh	MLL AF4-AF9 inh
31	9.4	-25.4	1.0	-1.5
32	2.4	-11.3	x	-0.3
33	2.1	8.1	-13.4	-3.0
34	x	x	-3.7	x
35	4.7	-0.5	-9.3	14.5
36	-3.8	3.8	x	0.3
37	0.4	3.8	x	-0.9
38	x	x	10.7	x
39	1.5	-2.3	x	1.4
40	x	x	-115.5	x
41	2.0	10.8	-3.0	-1.1
42	x	x	-20.5	x
43	x	x	49.0	x
44	-2.1	5.3	-17.2	0.0
45	x	x	-0.7	x

Arranged by value in ALR inh (largest number first): 4 of the compounds above.
no.	mol	ALR inh
38	O=C1c2ccccc2C(=O)N1SC1CCCCC1	10.7
35	Cc1cc(C)cc(NC(=S)/C(=C(\[O-])c2ccc(Cl)s2)[n+]2cccc(C)c2)c1	-9.3
44	O=C(COC(=O)/C=C/c1ccc([N+](=O)[O-])cc1)NNC(=O)c1ccccc1	-17.2
40	COC(=O)c1ccc2c(c1O)C(=O)c1ccccc1C2=O	-115.5

The list continues.
entry	SMILES	FGF22 binding	Vif TR-FRET	HNF4A DNA FP	E coli growth	rRNA inh HTS
46	Cc1noc(C)c1S(=O)(=O)Nc1ccc2c(c1)C(=O)N([C@@H](C)CO)C[C@@H](C)[C@@H](CN(C)Cc1ccc(C(=O)O)cc1)OCCCC[C@H](C)O2	i	x	x	x	-0.5
47	CCNC(=O)/C(=C/c1cccc([N+](=O)[O-])c1)NC(=O)c1ccc(C)cc1	i	-17.7%	-3.4	x	9.1
48	CCCS(=O)(=O)c1nc(S(=O)(=O)c2ccc(C)cc2)c(N2CCC3(CC2)OCCO3)s1	x	x	-0.1	0.69	-9.2
49	CCN1CCN(C(=O)C2c3cc(OC)c(OC)cc3C(=O)N(C)C2c2ccc(SC)cc2)CC1 (centres undefined)	x	-9.8%&12.0%	-2.2	0.728	x
50	CC(Nc1nc(-c2ccccc2F)nc2ccccc12)c1ccccc1 (centres undefined)	i	-6.3%	-1.2	0.674	-19.3
51	CC(=O)Nc1ccc2c(O)cc(S(=O)(=O)O)cc2c1	i	19.9%	-14.7	0.681	-0.2
52	CCOC(=O)C1=C(COC(=O)/C=C/c2ccco2)NC(=O)NC1C (centres undefined)	i	10.9µM*	-19.1	0.641	1.3

entry	rRNA inh HTS RFP	rRNA inh HTS OD600	ALR inh	MLL AF4-AF9 inh
46	-1.0	4.9	x	-12.7
47	3.1	18.6	-3.0	-3.5
48	2.0	-18.1	-4.3	2.6
49	x	x	-7.5	x
50	0.6	-32.2	0.3	-4.7
51	14.2	5.9	x	-1.2
52	-1.1	8.2	2.4	-3.0
